From PubChem
UUG fidelity: modulators of yeast start codon fidelity, primary screen, whole organism, S. cerevisiae, single point, plate reader. AID 602363, 2012. 350,000 tested, 0.13% active. activity score, % at 18.7 µM. S. cerevisiae UUG-firefly luciferase reporter, luminescence/redox ratio;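 active means replicate mean at a twofold rise or more, about +100% in these data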;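 further: firefly luciferase made from a UUG start codon reports start codon fidelity; reporter light over untreated wells divided by growth signal over untreated wells; some hits fall short of that in this replicate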
MT1-MMP act inh: blockers of MT1-MMP proenzyme processing, primary screen, HT1080 RFP-PRO-GFP cells, GFP/RFP fluorescence; GFP/RFP ratio fluorescence, overnight; percent of plate control window, DMSO zero; GFP/RFP ratio change, % at 20 µM; 360,000 tested, 0.061% active;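 active means GFP/RFP ratio change of at least 30% with cell ATP level not reduced by more than half and red fluorescence within 50% of control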; further: strong numbers were not always called active
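Read-out: GFP/RFP fluorescence ratio; Test system: RFP-PRO-GFP reporter HT1080 cells; Compound dosing: single-point 20 µM compound, 1% DMSO; Times: overnight compound exposure at 37 °C.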
MT1-MMP act inh RFP: also measured in MT1-MMP act inh; calls as there; RFP signal change, %; measured here: RFP expression control read;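 0 = vehicle wells; hits needed this value within 50% of zero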
Starred values were filed as active, the others as inactive. Only part of the results is shown (hit frequency here may not be typical).

Under each structure – UUG fidelity, MT1-MMP act inh, MT1-MMP act inh RFP
> Cc1cccc(OCc2nnc(SCC(=O)N(c3ccccc3)C3CCS(=O)(=O)C3)o2)c1 (stereo not drawn)
 : -16, 1, -8
> O=C(NCc1ccc2c(c1)OCO2)c1[nH]c(C(F)(F)F)nc1-c1ccccc1
 : -10, 2, -2
> O=C(O)CNC(=O)C1(N2C(=O)c3ccccc3C2=O)CCCC1
 : -19, 1, 3
> CC[C@]12c3[nH]c4cc(CCC(=O)N(C)C)ccc4c3CCN1C(=O)[C@@H](CC(=O)NCc1ccc(OC)c(OC)c1)C[C@@H]2C(=O)N1CCN(C(=O)c2ccco2)CC1
 : -6, 4, 3
> COc1ccc(CN(C)C(=O)CCc2ccc(S(=O)(=O)N3CCCCCC3)cc2)c(OC)c1
 : 5, 0, -8
> COCCCN1C(=O)C(CC(=O)NC(c2ccccc2)c2ccccc2)CC(C(=O)N(C(C)C)C(C)C)=C1C (stereo not drawn)
 : -7, 0, 0
> Cc1ccc(S(=O)(=O)Nc2ccccc2-c2nc3ccccc3[nH]c2=O)cc1
 : -5, -5, -2
> CC(C)(C)NC(=O)C[C@H]1C[C@H](C(=O)N2CCOCC2)[C@@]2(CCC3CCCC3)c3[nH]c4ccc(Cl)cc4c3CCN2C1=O
 : -8, -25, -28
> CC(=O)OC1CCC2(C)C3=CCC4(C)C(C(C)=O)=CCC4C3CCC2C1 (stereo not drawn)
 : -8, 3, -1
> CC(C)CC1NC(=O)c2cc3ccccc3cc2-n2c1nc1ccc(F)cc1c2=O (stereo not drawn)
 : -4, -5, -8
> Cc1cc(C)nc(SCC(=O)NCC2COc3ccccc3O2)n1 (stereo not drawn)
 : -33, 2, 2
> CC(Oc1ccc(Br)cc1)C(=O)NC1CCCCCC1 (stereo not drawn)
 : -9, 7, 0
> CCCCC[C@@H]1[C@@H]2C(=C(OCC)C[C@@H]3C(=O)N(c4ccccc4)C(=O)[C@H]23)[C@H](c2ccccc2)N1S(=O)(=O)c1ccc(C)cc1
 : 5, 4, -1
> CC[C@@H](C)[C@@H]1CN([C@@H](CN2CCC[C@H]2CN2C(N)=NC[C@H]2CC(C)C)C(C)C)C(=N)N1CCc1ccc(Cl)c(Cl)c1
 : -16, 5, 5
> C#CCN(C[C@@H]1[C@@H](OC(=O)NCC2CCCCC2)[C@@H](OC(=O)NCC2CCCCC2)Cn2c(=O)ccc(=O)n21)S(=O)(=O)c1ccc(C)cc1
 : -34, -21, -35
> CCOC(=O)C1CCCN(C(=O)c2ccc(NS(=O)(=O)c3ccc4[nH]c(=O)[nH]c4c3)cc2)C1 (stereo not drawn)
 : -1, -1, 5
> Cc1ccc(S(=O)(=O)N2CCN(c3ncnc4sccc34)CC2)cc1C
 : -8, -8, -26
> O=C(NN=Cc1ccc2c(c1)OCO2)C1CC1
 : -8, 1, 0
> O=c1[nH]nc(-c2ccc([N+](=O)[O-])o2)c(=O)[nH]1
 : -26, -2, 4
> CCN(CC(=O)NCc1cccs1)C(=O)c1ccc(-c2ccccc2F)o1
 : 5, -2, -1
> Cc1ccc(C)c(S(=O)(=O)NCCC(=O)N2CCCC(C(N)=O)C2)c1 (stereo not drawn)
 : -3, -2, 4
> O=C(CN1CCc2ccccc2C1)Nc1cccc(S(=O)(=O)N2CCOCC2)c1
 : 1, 3, -2
> CC1CCCCC12NC(=O)N(CC(=O)N1CCN(S(=O)(=O)c3cccs3)CC1)C2=O (stereo not drawn)
 : 12, -1, 7
> O=C(COc1cccnc1[N+](=O)[O-])Nc1ncc(Cl)cc1Cl
 : -14, 0, -1
> CC(=O)OCC1=C(C(=O)O)N2C(=O)[C@@H](NC(=O)CSc3ccncc3)[C@H]2SC1
 : -27, 1, 3
> COc1cc(C(=O)N2CCCCC2c2cc(C(=O)Nc3ccccc3Cl)no2)cc(OC)c1C (stereo not drawn)
 : -31, -8, -13
> COc1cc(/C=C/C(=O)OCc2csc(CC(=O)Nc3ccc(C)cc3)n2)ccc1OCC#N
 : -16, 0, 3
> O=c1c(-c2c(O)cc(O)c3c2O[C@H](c2ccc(O)cc2)CC3)c(-c2ccc(O)cc2)oc2cc(O)cc(O)c12
 : -7, -2, 3
> CC(C)COC(=O)N1CCCCC1c1cc(C(=O)NCc2ccc(F)cc2)no1 (stereo not drawn)
 : 1, 1, -11
> Cc1noc(C)c1COc1ccccc1C(=O)N1CCN(S(=O)(=O)c2cccc(Cl)c2)CC1
 : -8, -4, -3
> CCc1ccc([C@@H]2C[C@H]3[C@@H](CN2S(=O)(=O)c2ccc(C)cc2)C(=O)C[C@@H](c2ccc(Cl)cc2)N3S(=O)(=O)c2ccc(C)cc2)cc1
 : 6, -6, -5
> C=CCOc1ccc(C[C@H](N)C(=O)NC[C@H]2O[C@@H](n3cnc4c(N)ncnc43)[C@H](O)[C@@H]2O)cc1
 : -18, 1, 0
> O=C(CC1(O)C(=O)Nc2ccc(Br)cc21)c1ccccc1 (stereo not drawn)
 : -5, 6, 9
> CC1CN(C(=O)c2ccc(Cl)c(S(=O)(=O)NCc3ccco3)c2)CC(C)O1 (stereo not drawn)
 : 0, 2, 2
> O=C(OCC1OC(n2ccc(=O)[nH]c2=O)C2OC12)c1ccccc1 (stereo not drawn)
 : -11, 2, 5
> CC(C)Oc1ccc(S(=O)(=O)N2CCCCC2)cc1NC(=O)CN1C(=O)NC(C)(C2CC2)C1=O (stereo not drawn)
 : -1, 10, 4
> CCOC(=O)[C@H]1[C@H]2COc3ccc(Br)cc3[C@@H]2N2C(=O)CN(C)C(=O)[C@@]12C
 : -5, 4, 6
> c1ccc2scnc2c1
 : -18, 2, 3
> C=CCNC(=O)Cc1ccc(S(=O)(=O)N2CCOCC2)s1
 : -7, 2, 5
> CC1CCCN(S(=O)(=O)c2cc(C(=O)NCCc3ccc(S(N)(=O)=O)cc3)ccc2Cl)C1 (stereo not drawn)
 : -10, 6, -27
> C[C@@]12C(=O)N(CC3CCCO3)CC(=O)N1[C@@H]1c3ccccc3OC[C@@H]1[C@@H]2c1ccccc1 (stereo partly drawn)
 : -12, 3, 7
> CCCCN1C(=N)N([C@@H](CCC)CN2CCC[C@H]2CN2C(N)=NC[C@@H]2Cc2ccccc2)C[C@H]1Cc1ccccc1
 : 14, 3, 3
> COc1ccccc1-c1sc2cc3c(cc2c1-c1ccc(OCCN2CCOCC2)cc1)OCO3
 : -16, -2, -5
> CC(C)C(NC(=O)c1c(F)cccc1F)C(=O)NCc1ccc(S(=O)(=O)N2CCOCC2)cc1 (stereo not drawn)
 : -4, 1, 1
> Cc1cccc(C(=O)NCC(=O)OCC(=O)N2CCN(S(=O)(=O)c3ccc(C)cc3C)CC2)c1
 : -9, 4, 4
> Cc1cc(C)c2c(=O)n3c(nc2c1)C(CC(C)C)NC(=O)c1cccnc1-3 (stereo not drawn)
 : -7, -2, -2
> CN1CCC(C)(C(=O)Nc2cccc3c2CCCC3)C1 (stereo not drawn)
 : -12, 5, 9
> Cc1cc(C(=O)COC(=O)c2ccc(O)cc2O)c(C)n1C(C)C
 : -10, 2, -6
> COc1cccc(-c2cnc(C(O)c3ccc(SC)cc3)[nH]2)c1 (stereo not drawn)
 : -23, 8, -3
> CCOC(=O)C1(NC(=O)CN2C(=O)c3ccccc3C2=O)CCCC1
 : -15, 1, -2

More structures follow.
Under each structure – UUG fidelity, MT1-MMP act inh, MT1-MMP act inh RFP
> O=C1NC(=O)C2(CCC(C3CCCCC3)CC2)N1 (stereo not drawn)
 : -5, 1, -4
> O=[N+]([O-])c1ccc(N=Nc2ccc(O)c3ccccc23)cc1
 : -22, -14, -19
> COCC(C)n1c(SCC(=O)NC(=O)NC2CCCC2)nc2ccccc2c1=O (stereo not drawn)
 : -4, -3, -1
> CCN(C(=O)COC(=O)CCCc1c[nH]c2ccccc12)c1c(N)n(Cc2ccccc2)c(=O)[nH]c1=O
 : 26, 0, 5
> Cc1ccc(OCCNC(=O)c2ccccc2OCc2c(C)noc2C)cc1
 : -4, -4, -4
> OC[C@@H]1[C@@H](c2ccccc2)C(c2ccc(F)cc2)=NN1c1ccccc1
 : -14, -4, -3
> CC1=C(C(=O)N(C(C)C)C(C)C)CC(CC(=O)NCc2cccs2)C(=O)N1Cc1ccc(C(C)(C)C)cc1 (stereo not drawn)
 : -16, -9, -20
> COc1c(-c2ccccc2)oc2c(ccc3occc32)c1=O
 : -10, 1, -2
> C#CCN(C[C@H]1[C@H](OC(=O)NCc2ccco2)[C@H](OC(=O)NCc2ccco2)C[C@@H](C(=O)OC)[C@H]1C(=O)OC)S(=O)(=O)c1ccc(C)cc1
 : 1, 2, 1
> CC(C)OCCCNC(=S)N1CCC(C(=O)c2ccc(F)cc2)CC1
 : -23, 2, -6
> CCOc1ccc2nc(NC(=O)C3CSC4(C)CCC(=O)N34)sc2c1 (stereo not drawn)
 : -16, -1, -2
> Cn1ccc2c(N3CCOCC3)cc3c(c21)C1CCC3C1 (stereo not drawn)
 : -7, 1, 3
> O=C(CCl)N1CCN(S(=O)(=O)c2ccc3c(c2)CCC3)CC1
 : -7, -4, 0
> Cc1ccc2nc(-c3ccccn3)c(N)n2c1
 : -36, 5, 2
> CCOc1ccc(C(=O)CCC(=O)NCC(=O)Nc2ccc(F)c(F)c2F)cc1
 : 6, 0, 5
> COC(=O)C=C1CCC2C3CC(F)C4(O)CC(=O)CCC4(C)C3C(=O)CC12C (stereo not drawn)
 : 1, 0, 1
> Cc1cccc(NS(=O)(=O)c2ccc(C)c(C(=O)N3CCN(C(=O)c4ccco4)CC3)c2)c1
 : 8, -2, 1
> CN(C(=O)CSc1nc2ccccc2[nH]1)C1CCS(=O)(=O)C1 (stereo not drawn)
 : -18, 4, 8
> COCCNC(=O)C1(C)CCCN(Cc2ccc(Cl)nc2)C1 (stereo not drawn)
 : -11, 4, 4
> O=C(NNC(=O)c1cc(-c2ccc(Br)cc2)nc2ccccc12)c1csc(N2CCOCC2)n1
 : -10, 7, -2
> Cc1ccc(OCCOC(=O)c2cccc(S(=O)(=O)N3CC(C)OC(C)C3)c2)cc1 (stereo not drawn)
 : -6, 4, -14
> O=S(=O)(c1cccc(Br)c1)N1CCN(S(=O)(=O)c2ccc3c(c2)OCCO3)CC1
 : -18, 4, 6
> CN(Cc1ccc(OC(F)F)cc1)C(=O)c1cccc(S(=O)(=O)N2CCN(Cc3ccccc3)CC2)c1
 : 13, 9, -31
> COc1ccccc1NS(=O)(=O)c1ccc(C(=O)NCCCN2CCOCC2)cc1
 : -5, 5, 3
> CCC(=O)Nc1ccc(C(=O)CN2C(=O)NC3(CCCCCC3)C2=O)cc1
 : 2, -1, 8
> COc1cccc(NC(=O)CN(C)C(=O)c2cc(C)oc2C)c1
 : -8, 2, 2
> O=c1[nH]c(=S)[nH]c(O)c1/C=C1\C=Nc2ccccc21
 : -18, 3, 0
> CCCS(=O)(=O)NC(=O)C1(C)CCCN(C(=O)c2ccccc2OC(F)(F)F)C1 (stereo not drawn)
 : -13, 7, 3
> O=C(NC1CC1)c1cc(-c2ccc(Br)cc2)nc2ccccc12
 : -8, -7, -4
> C=CCOc1cccn2c(N(C)C(=O)c3ccccc3F)c(CC)nc12
 : -14, 2, 5
> CN(CC(=O)Nc1cccc(F)c1)C(=O)c1cccc(S(=O)(=O)N2CCN(c3ccc(F)cc3)CC2)c1
 : -8, -2, -26
> C=C(C)C(O)COc1c2occc2c(OC)c2ccc(=O)oc12 (stereo not drawn)
 : -11, -3, 1
> Cc1ccccc1S(=O)(=O)Nc1ncnc2sccc12
 : -5, 1, 2

Shown with the structure last: 16 of the compounds above.
UUG fidelity,MT1-MMP act inh,MT1-MMP act inh RFP,canonical_smiles
6,0,5,CCOc1ccc(C(=O)CCC(=O)NCC(=O)Nc2ccc(F)c(F)c2F)cc1
1,0,1,COC(=O)C=C1CCC2C3CC(F)C4(O)CC(=O)CCC4(C)C3C(=O)CC12C (stereo not drawn)
8,-2,1,Cc1cccc(NS(=O)(=O)c2ccc(C)c(C(=O)N3CCN(C(=O)c4ccco4)CC3)c2)c1
-18,4,8,CN(C(=O)CSc1nc2ccccc2[nH]1)C1CCS(=O)(=O)C1 (stereo not drawn)
-11,4,4,COCCNC(=O)C1(C)CCCN(Cc2ccc(Cl)nc2)C1 (stereo not drawn)
-10,7,-2,O=C(NNC(=O)c1cc(-c2ccc(Br)cc2)nc2ccccc12)c1csc(N2CCOCC2)n1
-6,4,-14,Cc1ccc(OCCOC(=O)c2cccc(S(=O)(=O)N3CC(C)OC(C)C3)c2)cc1 (stereo not drawn)
-18,4,6,O=S(=O)(c1cccc(Br)c1)N1CCN(S(=O)(=O)c2ccc3c(c2)OCCO3)CC1
13,9,-31,CN(Cc1ccc(OC(F)F)cc1)C(=O)c1cccc(S(=O)(=O)N2CCN(Cc3ccccc3)CC2)c1
-5,5,3,COc1ccccc1NS(=O)(=O)c1ccc(C(=O)NCCCN2CCOCC2)cc1
2,-1,8,CCC(=O)Nc1ccc(C(=O)CN2C(=O)NC3(CCCCCC3)C2=O)cc1
-8,2,2,COc1cccc(NC(=O)CN(C)C(=O)c2cc(C)oc2C)c1
-18,3,0,O=c1[nH]c(=S)[nH]c(O)c1/C=C1\C=Nc2ccccc21
-13,7,3,CCCS(=O)(=O)NC(=O)C1(C)CCCN(C(=O)c2ccccc2OC(F)(F)F)C1 (stereo not drawn)
-8,-7,-4,O=C(NC1CC1)c1cc(-c2ccc(Br)cc2)nc2ccccc12
-14,2,5,C=CCOc1cccn2c(N(C)C(=O)c3ccccc3F)c(CC)nc12
